Source: PubChem
RGS16-Gao HTS: modulates binding between human RGS16 and Galphao | O15492+P09471 | bead-based flow cytometry RGS16-Galphao binding, fluorescence; actives lie on both sides | binding response (% of control), % at 10 µM | hit rate 0.38% among 220,000 | AID 1441;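 active = below 25% or above 175%, edge rows of some plates excepted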;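 note: Galphao activated by GDP with aluminum fluoride before binding; 100% = wells without compound and 0% = beads without RGS; some results beyond the cut were filed as inactive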
HSV augment: increases HSV replication in cells. HSV replication augmentation in cells, fold increase. maximum fold increase. hit rate 0.005% among 220,000;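 active = peak rise of 1.5-fold or more in the series; tested in PC3 cells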;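 note: first round at 10 µM; read as green reporter fluorescence; hits show the peak of a series up to 25 µM; 1 = signal of infected wells without compound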
GALR2 ag: activates the human galanin receptor 2; O43603; GALR2-expressing cells, agonist activation read-out; activation, %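 (tested at 5 µM)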; hit rate 0.48% among 140,000; AID 803;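 active = above mean plus 3 SD of all compounds, about 5% in these data, not always enough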;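 note: 0% = vehicle buffer wells and 100% = reference agonist at full effect; tested in CHO reporter cells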
PKD1 inh: PKD1 (human) kinase inhibition; hit rate 0.056% among 200,000; AID 797; inhibition, %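 (about 10 µM by stock and volumes)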; PKD1 kinase fluorescence polarization assay; Q15139;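 active = inhibition of 50% or more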;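 note: controls were vehicle for no effect and a reference inhibitor for full effect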
Target sequence (Q15139 whole entry, looked up): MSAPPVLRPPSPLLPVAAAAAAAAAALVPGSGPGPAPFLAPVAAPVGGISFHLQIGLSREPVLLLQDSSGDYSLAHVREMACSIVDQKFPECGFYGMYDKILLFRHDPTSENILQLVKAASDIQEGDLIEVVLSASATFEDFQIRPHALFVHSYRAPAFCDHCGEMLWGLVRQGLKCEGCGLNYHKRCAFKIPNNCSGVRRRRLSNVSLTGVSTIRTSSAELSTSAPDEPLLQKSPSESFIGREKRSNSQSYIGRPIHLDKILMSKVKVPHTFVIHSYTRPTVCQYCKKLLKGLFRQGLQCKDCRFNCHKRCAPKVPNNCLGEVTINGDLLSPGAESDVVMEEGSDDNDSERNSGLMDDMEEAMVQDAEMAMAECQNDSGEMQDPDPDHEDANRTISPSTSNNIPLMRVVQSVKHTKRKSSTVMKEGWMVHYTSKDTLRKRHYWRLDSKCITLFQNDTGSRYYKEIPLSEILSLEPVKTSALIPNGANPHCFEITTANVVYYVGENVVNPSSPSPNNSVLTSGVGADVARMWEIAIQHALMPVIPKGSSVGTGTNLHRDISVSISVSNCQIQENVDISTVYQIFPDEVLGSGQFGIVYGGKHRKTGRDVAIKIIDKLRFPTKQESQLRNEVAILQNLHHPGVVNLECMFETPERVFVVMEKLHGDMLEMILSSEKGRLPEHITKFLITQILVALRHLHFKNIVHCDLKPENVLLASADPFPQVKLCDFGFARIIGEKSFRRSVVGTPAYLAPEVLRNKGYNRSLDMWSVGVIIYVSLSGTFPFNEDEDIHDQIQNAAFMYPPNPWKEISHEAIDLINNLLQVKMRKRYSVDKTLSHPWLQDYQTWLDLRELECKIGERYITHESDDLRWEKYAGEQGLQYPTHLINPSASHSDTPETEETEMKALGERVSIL
Insulin prom inh: TRM-6 insulin promoter activity inhibition; AID 1273; hit rate 0.9% among 130,000; TRM-6 cells (human fetal islet line), insulin promoter-eGFP reporter, imaging; reporter expression induced with tamoxifen; inhibition, % at 2 µM;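 active = inhibition above the mean plus 3 SD, with well images judged a real hit on visual review, cut at about 60% in these data, passing the limit was not always enough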
Insulin prom inh cell count: second read-out of Insulin prom inh, no call of its own (marks repeat the call); normalized cell count, %; measured here: cell count, toxicity; reference of the scale not given here;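 cells exposed to compound for 48 h; stained nuclei by imaging scaled within each plate; lower means fewer cells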
HSV augment primary fold: second read-out of HSV augment, no call of its own (marks repeat the call); fold increase; compound at 10 µM; measured here: primary screen fold increase 10 uM; tested in PC3 cells;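 GFP signal in the first replicate; 1 = infected wells without compound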
* hit, by the source's call; i = inactive; / = not tested or not shown.

Start of the data: the first three compounds, ahead of the listing:
Second line of a record – RGS16-Gao HTS, HSV augment, HSV augment primary fold, GALR2 ag, PKD1 inh, Insulin prom inh, Insulin prom inh cell count
O=C1c2ccccc2S(=O)(=O)N1Cc1cccc(S(=O)(=O)N2CCOCC2)c1
  99, i, 0.99, -2.1, -7, /, /
COc1ccccc1NC(=O)CC1C(=O)Nc2ccccc2N1C(=O)c1ccccc1 (stereo unspecified)
  98, i, 0.99, /, -1, -38, 126
CCCCCCCCOC(=O)C1=C(C)Nc2nnnn2C1c1cccs1 (stereo unspecified)
  97, i, 1, 2.2, 0, 27, 98

The list itself, previewed entries included:
Second line of a record – RGS16-Gao HTS, HSV augment, HSV augment primary fold, GALR2 ag, PKD1 inh, Insulin prom inh, Insulin prom inh cell count
O=C1c2ccccc2S(=O)(=O)N1Cc1cccc(S(=O)(=O)N2CCOCC2)c1
  99, i, 0.99, -2.1, -7, /, /
COc1ccccc1NC(=O)CC1C(=O)Nc2ccccc2N1C(=O)c1ccccc1 (stereo unspecified)
  98, i, 0.99, /, -1, -38, 126
CCCCCCCCOC(=O)C1=C(C)Nc2nnnn2C1c1cccs1 (stereo unspecified)
  97, i, 1, 2.2, 0, 27, 98
O=[N+]([O-])c1ccc(N2CCN(Cc3ccccc3)CC2)nc1
  99, i, 1, /, -10, -7, 111
NS(=O)(=O)c1ccc(NC(=S)Nc2ccc(OCc3ccccc3)cc2)cc1
  102, i, 1, /, -8, /, /
C(=N\n1cnnc1)/c1ccc(OCc2cccc3ccccc23)cc1
  103, i, 0.88, -0.4, -10, 31, 112
N#Cc1nc(COc2ccccc2Cl)oc1NCc1cccnc1
  103, i, 0.96, -0.9, 0, 68, 61
Cc1cc(-c2cccs2)c2c(n1)sc1c(=O)[nH]c(=O)[nH]c12
  96, /, /, -1.7, -3, -342, 59
COc1ccccc1OCCC(=O)OCC(=O)Nc1cc(S(=O)(=O)N2CCOCC2)ccc1Cl
  106, i, 0.99, /, 3, 27, 98
COc1cccc2cc(C(=O)C3=C(O)C(=O)N(CCN4CCOCC4)C3c3ccc(Cl)cc3)oc12 (stereo unspecified)
  98, i, 0.93, /, /, /, /

Single records (already shown):
Profile of COc1ccccc1NC(=O)CC1C(=O)Nc2ccccc2N1C(=O)c1ccccc1 (stereo unspecified) → RGS16-Gao HTS = 98; HSV augment = i; HSV augment primary fold = 0.99; GALR2 ag = /; PKD1 inh = -1; Insulin prom inh = -38; Insulin prom inh cell count = 126
Profile of O=[N+]([O-])c1ccc(N2CCN(Cc3ccccc3)CC2)nc1 → RGS16-Gao HTS = 99; HSV augment = i; HSV augment primary fold = 1; GALR2 ag = /; PKD1 inh = -10; Insulin prom inh = -7; Insulin prom inh cell count = 111
Profile of CCCCCCCCOC(=O)C1=C(C)Nc2nnnn2C1c1cccs1 (stereo unspecified) → RGS16-Gao HTS = 97; HSV augment = i; HSV augment primary fold = 1; GALR2 ag = 2.2; PKD1 inh = 0; Insulin prom inh = 27; Insulin prom inh cell count = 98

Following part
Second line of a record – RGS16-Gao HTS, HSV augment, HSV augment primary fold, GALR2 ag, PKD1 inh, Insulin prom inh, Insulin prom inh cell count
CCSc1nnc(NC(=O)C(Cc2ccccc2)n2cccc2)s1 (stereo unspecified)
  101, i, 1, -0.8, -5, /, /
N#Cc1c2n(c(=S)n(-c3ccccn3)c1=O)CCCCC2
  93, i, 1, -2.9, -3, -13, 44
Cc1cn(C(=O)CN2C(=O)c3ccccc3C2=O)c(C)n1
  110, i, 1, -1.5, -3, -6, 142
Cc1occc1-c1nnc(SCc2nnc(-c3ccc(Cl)cc3)o2)n1C
  100, i, 0.81, -1.9, -3, /, /
Cc1cc(N/N=C\c2ccc(Br)cc2)nc(-n2nc(C)cc2C)n1
  103, i, 0.71, /, /, /, /
O=C(C1=C[C@H](c2csc3ccccc23)C[C@H](OCc2ccc(CO)cc2)O1)N1CCOCC1
  104, i, 0.86, /, 8, /, /
Cc1c(Br)cc(C(=O)O)c(C)c1C
  88, i, 1, -1.5, 3, -164, 105
CCn1c(SCC(=O)c2cccs2)nnc1-c1cccs1
  43, i, 0.91, 0.0, -8, /, /
COc1ccc(Cn2c(=O)[nH]c3cc(C(=O)NC4CCN(Cc5ccccc5)CC4)ccc32)cc1
  103, i, 0.85, /, 4, /, /
CC1CCc2nn(CC(=O)NCCCN3CCCC3=O)cc2C1 (stereo unspecified)
  103, i, 0.96, /, -1, /, /
Cc1ccc(S(=O)(=O)N(Cc2n[nH]c(=S)n2-c2ccccc2)c2ccccc2)cc1
  105, i, 0.92, /, /, /, /
Cc1cc(C)nc(N/N=C/c2ccccc2)n1
  100, i, 0.73, -1.2, -16, 6, 121
O=C(Nc1nnc(SCc2ccc(F)cc2)s1)c1cccnc1Cl
  103, i, 0.8, /, -1, /, /
Cc1cc(C)n2cc(CSc3nnnn3-c3ccccc3)nc2n1
  103, i, 0.83, -0.9, 4, /, /
O=C(CNC(=S)N(Cc1ccc(F)cc1)C1CCCCC1)NCC1CCCO1 (stereo unspecified)
  101, i, 1, /, -1, /, /
Cc1nc2ccc(NC(=S)NC3CC3)cc2nc1C
  115, i, 0.95, 0.0, 0, /, /
N#Cc1ccc(/C=N/NC(=O)c2ccccc2F)cc1
  103, i, 0.87, 0.2, 2, /, /
O=C(CSc1ccccc1)N1CCN(c2ccccn2)CC1
  89, i, 1, /, -7, 19, 84
COc1ccccc1CNC(=O)C1=C(C)C(=O)OC12CCC(C)CC2 (stereo unspecified)
  110, i, 0.74, -2.7, -4, /, /
CCOCCCn1c(=N)c(C(=O)NCCN2CCOCC2)cc2c(=O)n3cccc(C)c3nc21
  97, /, /, 3.0, 4, /, /
Cc1ccc(Cl)cc1NC(=O)CCCN1C(=O)c2cccnc2C1=O
  101, i, 0.97, /, -4, /, /
CC(=O)Nc1sc(N/N=C/c2ccc(N(C)C)cc2)nc1-c1ccc(C)cc1
  100, i, 1.1, /, /, /, /
Cc1cccn2c(=O)c(/C=C(\C#N)C(=O)NCc3ccccc3)c(N3CCC(C(N)=O)CC3)nc12
  95, i, 1.1, /, /, /, /
O=C(CN1C(=O)C2C3C=CC(C3)C2C1=O)NCc1ccco1 (stereo unspecified)
  129, i, 0.96, -1.4, -5, -25, 90
COc1ccccc1C1C(C(=O)c2cc3ccccc3o2)=C(O)C(=O)N1CCN1CCOCC1 (stereo unspecified)
  100, i, 0.98, 0.4, 6, /, /
O=C1c2ccccc2NC(c2ccc(-c3cccc([N+](=O)[O-])c3)o2)N1O (stereo unspecified)
  108, i, 0.89, -1.9, -20, 38, 53
O=C(Nc1ccc(F)cc1F)c1cccn1-c1ncc(C(F)(F)F)cc1Cl
  100, i, 1.1, -2.4, -2, -31, 112
CSCC[C@H](NC(=O)C1CCN(S(=O)(=O)c2ccc(C)cc2)CC1)C(=O)NC1CCS(=O)(=O)C1 (stereo partly specified)
  96, i, 1, -1.2, -2, 29, 114
COc1ccc(CNC(=O)Nc2ccc(C)cc2)cc1
  99, i, 1, -5.4, -7, -28, 107
Cc1ccc2[nH]c3c(N4CCc5ccccc5C4)ncnc3c2c1
  108, i, 0.86, -0.8, -4, 42, 191

Look-ups from the entries so far.
GALR2 ag with N#Cc1nc(COc2ccccc2Cl)oc1NCc1cccnc1 reads -0.9
GALR2 ag with Cc1cc(C)nc(N/N=C/c2ccccc2)n1 reads -1.2
HSV augment primary fold with Cc1ccc2[nH]c3c(N4CCc5ccccc5C4)ncnc3c2c1 reads 0.86
GALR2 ag with CCCCCCCCOC(=O)C1=C(C)Nc2nnnn2C1c1cccs1 (stereo unspecified) reads 2.2
GALR2 ag with Cc1cc(C)n2cc(CSc3nnnn3-c3ccccc3)nc2n1 reads -0.9
HSV augment primary fold with COc1cccc2cc(C(=O)C3=C(O)C(=O)N(CCN4CCOCC4)C3c3ccc(Cl)cc3)oc12 (stereo unspecified) reads 0.93

Next section.
Second line of a record – RGS16-Gao HTS, HSV augment, HSV augment primary fold, GALR2 ag, PKD1 inh, Insulin prom inh, Insulin prom inh cell count
COc1cccc(NC(=S)NC(C)c2ccc(OC)c(OC)c2)c1 (stereo unspecified)
  98, i, 1.1, /, -4, 0, 125
S=C(NCC1CCCO1)Nc1ccc(Cl)cc1 (stereo unspecified)
  88, i, 1.1, -0.8, 3, -9, 103
COc1ccc(CN(C)CC(=O)Nc2ccccc2-c2ccccc2)c(OC)c1
  96, i, 0.92, /, 0, /, /
CCCCCCCCC(=O)N/N=C(\C)c1ccco1
  105, i, 0.96, -1.3, -8, -7, 190
COc1ccccc1N/C(=N/S(=O)(=O)c1ccc(C)cc1)c1ccccc1
  106, i, 0.99, -1.8, 8, -6, 124
COc1cc(OC)cc(C(C(=O)NCc2ccccc2)N(Cc2ccco2)C(=O)c2ccno2)c1 (stereo unspecified)
  105, i, 1, -1.5, -1, /, /
N#CCC1c2ccccc2CCN1C(=O)Nc1ccc(Cl)cc1 (stereo unspecified)
  124, i, 1.1, -1.5, 9, 0, 158
CCOC(=O)CNS(=O)(=O)c1ccc(S(=O)(=O)N2CCCC2)cc1
  100, i, 0.8, -1.5, -5, -38, 122
COc1ccc(-c2csc(=Nc3ccccc3)n2CCO)cc1
  103, i, 0.92, -1.9, -6, -19, 118
CCOc1cc(CNc2cccc3ccccc23)cc(Br)c1OCC(=O)NC(C)(C)C
  92, i, 1.5, -3.7, -8, 14, 98
O=C(CS(=O)(=O)c1cn(Cc2ccc(Cl)cc2)c2ccccc12)N1CCCC1
  97, i, 0.97, -2.5, 3, /, /
O=C(Nc1ccccc1F)Nc1ccccc1OC(F)F
  103, i, 1, /, -3, /, /
CCOC(=O)N1CCN(C(=O)/C(=C/c2ccc(OC)c(OC)c2)NC(=O)c2ccccc2)CC1
  118, i, 0.95, /, 2, /, /
COc1ccccc1-c1noc(CSc2nc(C)cc(=O)[nH]2)n1
  48, i, 1.2, /, -1, /, /
CC1=CCC2C(=O)N(c3ccc(N4CCOCC4)cc3)C(=O)C2C1 (stereo unspecified)
  103, i, 1.1, /, /, /, /
CCc1nc(-c2ccccc2O)n(-c2ccccc2)n1
  101, i, 0.99, 1.1, -6, -54, 95
CCN(CC)C(=O)CSc1nnc(-c2cnccn2)n1-c1ccccc1
  89, i, 0.97, 0.7, 2, 8, 111
CC(C)C(=O)Nc1cccc(NC(=O)c2ccc([N+](=O)[O-])cc2Cl)c1
  102, i, 1, 7.6*, 1, /, /
CCCc1cc(-c2nc(N)ncc2-c2csc(C)n2)c(O)cc1OC
  103, i, 0.71, /, 0, 28, 92
CN(c1cccc(NC(=O)Nc2ccc(Cl)cc2)c1)S(C)(=O)=O
  108, /, /, 0.2, -16, -3, 57
O=C(Nc1ccc(Cl)c(C(F)(F)F)c1)NC1CC2CCCC(C1)N2C1CC1 (stereo unspecified)
  /, i, 0.92, -2.0, 1, 30, 157
O=C(CN1CCN(c2ccccc2)CC1)N1CCc2[nH]c3ccccc3c2C1
  104, i, 1.1, -0.6, 10, -19, 180
COCCNc1cc(C)c(C#N)c2nc3ccccc3n12
  90, i, 0.82, 1.3, -5, 67, 96
CCN(CC)CCNCC(O)(c1ccc(Cl)cc1)c1ccc(Cl)cc1
  107, i, 0.79, /, -11, 2, 156
CCOC(=O)c1cc(NC(=O)N(CC)CC)c(C)nc1C
  104, i, 0.84, -0.2, 2, -8, 135
Cn1c(CCNC(=O)c2ccco2)nc2cc(NC(=O)NC3CCCCC3)ccc21
  99, i, 0.94, -2.1, 3, /, /
Cc1cc(C)cc(OCC(=O)N/N=C/c2ccc([N+](=O)[O-])o2)c1
  98, i, 0.9, /, 12, /, /
N#CCCn1c(=S)[nH]c2ccccc21
  129, i, 0.95, -1.2, -1, /, /
COc1ccc(CCN(CC(=O)NC2CCCC2)C(=O)Cn2nnc(-c3ccc(C)o3)n2)cc1OC
  105, i, 0.93, /, -1, /, /
COCCOC(=O)c1c(C)oc2ccc(NS(=O)(=O)c3ccccc3)cc12
  100, i, 1, -0.2, -14, /, /

Hits appear at their usual frequency; 1.1% or so of the library scored in one or more.
